# High-throughput results from PubChem BioAssay.
# YopH inh = inhibitors of Yersinia enterocolitica YopH tyrosine phosphatase; inhibition, %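 (about 10 µM by stock and volumes)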; AID 898; fluorescence Ex485/Em525; 0.16% of 140,000 active;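 active = inhibition of 50% or more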;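 note: controls were vehicle for no effect and minimum signal wells for full effect; inactives centre near -20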
# RecA intein inh = inhibitors of M. tuberculosis RecA intein splicing | P9WHJ3 | cell-free RecA intein splicing, fluorescence | inhibition, %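 (about 9 µM by stock and volumes)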 | 0.75% of 290,000 active | AID 2221; in the data active = inhibition above about 30%; inconclusive = no clear call, values can overlap the other calls;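 note: 0% = vehicle wells and 100% = reference inhibitor control wells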
# Target sequence (P9WHJ3 whole entry, looked up): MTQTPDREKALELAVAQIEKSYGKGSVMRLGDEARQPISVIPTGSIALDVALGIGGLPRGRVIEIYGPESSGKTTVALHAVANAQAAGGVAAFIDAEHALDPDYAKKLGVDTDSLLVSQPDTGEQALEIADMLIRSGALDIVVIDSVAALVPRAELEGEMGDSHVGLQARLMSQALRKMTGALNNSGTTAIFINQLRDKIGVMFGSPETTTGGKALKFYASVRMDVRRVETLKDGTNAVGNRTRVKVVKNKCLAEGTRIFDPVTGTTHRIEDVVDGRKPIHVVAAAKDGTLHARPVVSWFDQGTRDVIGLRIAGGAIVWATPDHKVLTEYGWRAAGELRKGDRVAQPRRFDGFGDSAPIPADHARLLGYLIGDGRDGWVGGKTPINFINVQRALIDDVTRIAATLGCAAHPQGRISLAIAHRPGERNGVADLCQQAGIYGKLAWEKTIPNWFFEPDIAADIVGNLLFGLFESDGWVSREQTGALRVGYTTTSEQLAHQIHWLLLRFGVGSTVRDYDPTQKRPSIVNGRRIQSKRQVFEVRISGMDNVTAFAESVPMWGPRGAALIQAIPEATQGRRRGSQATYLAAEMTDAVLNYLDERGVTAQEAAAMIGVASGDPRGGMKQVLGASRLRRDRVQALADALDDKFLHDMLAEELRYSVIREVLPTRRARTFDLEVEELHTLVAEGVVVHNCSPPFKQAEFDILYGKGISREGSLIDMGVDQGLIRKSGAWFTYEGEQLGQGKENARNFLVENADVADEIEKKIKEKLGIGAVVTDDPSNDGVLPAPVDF
# Mtb betalactam = beta-lactam sensitization of Mtb H37Rv; M. tuberculosis H37Rv growth with meropenem, percent inhibition; hits of this screen are not shown here; inhibition, % at 25 µM; 0.27% of 330,000 active; AID 434955;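 active = about 74% or more and at least 40 points above the plate without the antibiotic, then above 30% in a dose series; inconclusive = first-round hits that could not be retested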;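 note: growth measured after seven days incubation then overnight dye step; 0% = bacteria only wells and 100% = bacteria with antibiotic; twin plates without the antibiotic show which effects depend on it; some results filed as inactive read as strong as hits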
# Arbovirus anti = antivirals against arbovirus infection. arbovirus infection cell-based antiviral screen. inhibition, % at 10 µM. 0.37% of 200,000 active. AID 1251;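 active = inhibition from about 30%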;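 note: bluetongue infection of BSR cells; cell survival read as ATP light after 72 h; 0% = infected wells without compound and 100% = uninfected wells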
# Mtb H37Rv = M. tuberculosis H37Rv growth inhibitors, H37Rv strain (AID 1626). M. tuberculosis H37Rv growth inhibition; higher % means a stronger effect. one-dose inhibition, % at 10 µM; IC50 in µM for titrated hits. 0.95% of 220,000 active;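 active = confirmed in a dose series; inconclusive = inhibition above 80% but not taken into the dose series; inactive = below 80% or under 30% at every dose of the series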;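 note: bacteria incubated seven days before Alamar blue readout; 0% = bacteria only wells and 100% = bacteria with antibiotic wells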
# Arbovirus anti repeat = recorded beside Arbovirus anti, whose call it bears; inhibition, %; measured here: 10K subset replicate screen; many hits read low in the repeat;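 first of two repeat runs on a subset; 0% = infected and 100% = uninfected wells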
# The depositor's hits bear a star; u = inconclusive; x = no result given. This is a subset; rates above refer to the full screens.
SMILES,YopH inh,RecA intein inh,Mtb betalactam,Arbovirus anti,Mtb H37Rv,others
CN(C(=O)C1CCC(=O)N(Cc2ccccc2F)C1)C1CCOCC1 (stereo unspecified),x,-0.3,u,x,x,
Oc1ccc(C[C@@H]2CNCCN2CCC23CC4CC(CC(C4)C2)C3)cc1,x,1.4,3,x,x,
CCn1ncc([N+](=O)[O-])c1C(=O)Nc1c(C)nn(Cc2ccc(F)cc2)c1C,x,-1.8,-2,1,x,
CCNNC(=O)C(O)(c1cccc(C)c1)c1cccc(C)c1,-23,7.1,-3,3,-2%,
O=C(NCCCn1ccnc1)c1cc(-c2ccc(Cl)cc2)nc2ccccc12,-13,0.9,48,-20,25%,
O=C(COC(=O)c1ccc(Cl)cc1O)NC(=O)C1CCCCC1,x,-0.5,69,4,5%,
O=C(CCNS(=O)(=O)c1ccc(OC(F)(F)F)cc1)N1CCN(S(=O)(=O)c2cccc(F)c2)CC1,x,-1.2,-12,x,x,
CCOc1ccc(-c2nc(C#N)c(NCc3ccco3)o2)cc1,x,2.0,4,-7,8%,
CCCCOc1ccc(C(=O)NCCOc2cccc(OC)c2)cc1,x,4.8,9,x,x,
O=C(NCCc1ccccc1)C1CCN(C(=O)c2ccc(F)cc2)CC1,x,-2.1,-8,x,x,
CC(C)(C)NC(=O)C(c1ccc(F)cc1)N(Cc1ccco1)C(=O)CCC(=O)Nc1ccccn1 (stereo unspecified),x,-0.8,-2,x,x,
COC(=O)CCC(=O)Nc1cccc2c(NC(=O)CCC(=O)OC)cccc12,-24,-5.9,-7,-1,-4%,
C=C(COC(C)=O)CC1CC(O)[C@]2(C)OC3CC4OC5C[C@]6(C)O[C@]7(C)CCC8OC9C[C@]%10(C)OC%11C(C)=CC(=O)OC%11CC%10OC9C[C@@H](C)C8OC7CC6O[C@]5(C)C/C=C\C4OC3CC2O1 (stereo partly specified),x,5.6,x,x,-2%,
CCOC(=O)c1c(NC(=O)COc2ccc3ccc(=O)oc3c2)sc(C(=O)N(C)C)c1C,x,3.1,3,x,x,
CCS(=O)(=O)NCC(c1cccnc1)N1CCN(c2ccc(OC)cc2)CC1 (stereo unspecified),x,-4.3,6,5,6%,
Cc1nn(Cc2ccccc2Cl)c(C)c1NC(=O)CCCn1nc([N+](=O)[O-])c(Cl)c1C,-31,-0.9,-3,1,-2%,
O=C1C2C3C=CC(C3)C2C(=O)N1c1cccc(-c2nc3ccccc3o2)c1 (stereo unspecified),-45,3.0,8,5,-1%,
Cc1ccc(C(=O)N/N=C/c2ccc(-c3cccc(Cl)c3)o2)cn1,x,-3.6,62,x,8%,
COc1ccc(NC(=O)CN(C)C(=O)CCSc2ccc(C)cc2)cc1,x,1.2,-6,x,x,
COc1cc(CNCc2cccs2)ccc1OCC(N)=O,-41,-0.4,14,-2,-10%,
Cc1ccc(-c2nc(CNC(=O)c3ccco3)cs2)cc1,x,2.1,0,x,x,
CCOc1ccc(C2CC(c3c(O)c4ccccc4oc3=O)=NN2c2ccccc2)cc1OC (stereo unspecified),x,-26,-10,0,7%,
Cc1ccc(CN2CCNC(=O)C2CC(=O)NCCCn2ncc3ccccc32)o1 (stereo unspecified),x,x,x,5,1%,
COc1ccc(-c2csc(N)n2)cc1,-21,-4.3,79,-1,84%,
O=C(c1ccc([N+](=O)[O-])cc1)N1CCN(c2cccc3[nH]ccc23)CC1,x,-1.3,7,x,-1%,

# Sorted by formula weight (smallest number first): 18 of the compounds above
SMILES,YopH inh,RecA intein inh,Mtb betalactam,Arbovirus anti,Mtb H37Rv,others
CCNNC(=O)C(O)(c1cccc(C)c1)c1cccc(C)c1,-23,7.1,-3,3,-2%,
COc1cc(CNCc2cccs2)ccc1OCC(N)=O,-41,-0.4,14,-2,-10%,
CCOc1ccc(-c2nc(C#N)c(NCc3ccco3)o2)cc1,x,2.0,4,-7,8%,
O=C(COC(=O)c1ccc(Cl)cc1O)NC(=O)C1CCCCC1,x,-0.5,69,4,5%,
CCCCOc1ccc(C(=O)NCCOc2cccc(OC)c2)cc1,x,4.8,9,x,x,
CN(C(=O)C1CCC(=O)N(Cc2ccccc2F)C1)C1CCOCC1 (stereo unspecified),x,-0.3,u,x,x,
O=C(NCCc1ccccc1)C1CCN(C(=O)c2ccc(F)cc2)CC1,x,-2.1,-8,x,x,
Oc1ccc(C[C@@H]2CNCCN2CCC23CC4CC(CC(C4)C2)C3)cc1,x,1.4,3,x,x,
COc1ccc(NC(=O)CN(C)C(=O)CCSc2ccc(C)cc2)cc1,x,1.2,-6,x,x,
CCn1ncc([N+](=O)[O-])c1C(=O)Nc1c(C)nn(Cc2ccc(F)cc2)c1C,x,-1.8,-2,1,x,
O=C(NCCCn1ccnc1)c1cc(-c2ccc(Cl)cc2)nc2ccccc12,-13,0.9,48,-20,25%,
CCS(=O)(=O)NCC(c1cccnc1)N1CCN(c2ccc(OC)cc2)CC1 (stereo unspecified),x,-4.3,6,5,6%,
CCOc1ccc(C2CC(c3c(O)c4ccccc4oc3=O)=NN2c2ccccc2)cc1OC (stereo unspecified),x,-26,-10,0,7%,
CCOC(=O)c1c(NC(=O)COc2ccc3ccc(=O)oc3c2)sc(C(=O)N(C)C)c1C,x,3.1,3,x,x,
Cc1nn(Cc2ccccc2Cl)c(C)c1NC(=O)CCCn1nc([N+](=O)[O-])c(Cl)c1C,-31,-0.9,-3,1,-2%,
CC(C)(C)NC(=O)C(c1ccc(F)cc1)N(Cc1ccco1)C(=O)CCC(=O)Nc1ccccn1 (stereo unspecified),x,-0.8,-2,x,x,
O=C(CCNS(=O)(=O)c1ccc(OC(F)(F)F)cc1)N1CCN(S(=O)(=O)c2cccc(F)c2)CC1,x,-1.2,-12,x,x,
C=C(COC(C)=O)CC1CC(O)[C@]2(C)OC3CC4OC5C[C@]6(C)O[C@]7(C)CCC8OC9C[C@]%10(C)OC%11C(C)=CC(=O)OC%11CC%10OC9C[C@@H](C)C8OC7CC6O[C@]5(C)C/C=C\C4OC3CC2O1 (stereo partly specified),x,5.6,x,x,-2%,

# The listing picks up; the 2 compounds before the break are reprinted first.
SMILES,YopH inh,RecA intein inh,Mtb betalactam,Arbovirus anti,Mtb H37Rv,others
COc1ccc(-c2csc(N)n2)cc1,-21,-4.3,79,-1,84%,
O=C(c1ccc([N+](=O)[O-])cc1)N1CCN(c2cccc3[nH]ccc23)CC1,x,-1.3,7,x,-1%,
NC(=O)C1CCN(c2oc(/C=C/c3ccc(F)cc3)nc2S(=O)(=O)c2ccccc2)CC1,x,-8.3,4,x,x,
CCCCc1nnc(NC(=O)c2ccc3c(=O)n4c(nc3c2)CCC4)s1,x,-1.1,-14,x,x,
COc1cc(/C=N/NC(=O)c2ccoc2C)ccc1O,-6,-5.6,-6,-9,3%,
CCOC(=O)c1c(NC(=O)COC)sc(C)c1C,7,3.0,13,-11,8%,
O=C1C2CCCN2C(=O)N1CCCN1CCN(c2ccc([N+](=O)[O-])cc2)CC1 (stereo unspecified),x,-1.1,-7,x,x,
Clc1ccc(CN2CCN(c3ncccn3)CC2)cc1,x,-1.5,-1,x,x,
N#C/C=C/N1CCC(Cc2ccccc2)CC1,x,-1.6,5,x,x,
C=CCn1c(SCc2cccc3ccccc23)nnc1-c1cccnc1,-4,1.0,-8,0,2%,
O=C(CSc1nnc2ccccn12)NCc1cccs1,-37,-0.2,-8,5,0%,
CS(=O)(=O)N(CC(O)CON=C1c2ccccc2-c2ccccc21)c1ccc(F)cc1 (stereo unspecified),-1,-0.2,6,1,-1%,
COc1ccc(OC)c(C2=NOC(C(=O)NCc3ccccn3)C2)c1 (stereo unspecified),-47,-3.3,-1,9,x,
CC(=O)Nc1ccc(S(=O)(=O)Nc2nccc(/C=C/c3ccccc3F)n2)cc1,x,-1.3,0,12,-2%,
O=C(COC(=O)C1(c2ccccc2F)CCCC1)NCc1cccs1,x,4.0,5,1,0%,
O=C1CC2(CCN(C(=O)c3c(F)cccc3F)CC2)Oc2ccccc21,x,0.5,-9,x,x,
CCOc1ccc(N=C(NC#N)SC)cc1,-31,-1.9,-6,1,2%,
CCOC(=O)c1c(C)[nH]c(C(=O)COC(=O)/C=C/c2ccc(OCC#N)c(OC)c2)c1C,x,1.5,-5,-7,2%,
CCOC(=O)C1CCCN(C2=NC(=O)/C(=C/c3ccc(O)c(OCC)c3)S2)C1 (stereo unspecified),x,-4.5,14,x,x,
CC12CN3CC(C)(CN(C1)C3c1ccc(Cl)cc1Cl)C2=O (stereo unspecified),-11,-0.4,1,-1,-5%,Arbovirus anti repeat=0
Cc1ccc(S(=O)(=O)N2CCOCC2)cc1NC(=O)COC(=O)c1ccc2c(c1)OCO2,x,-0.6,2,12,6%,
COc1ccc(-c2csc(NCCc3nc4cc(C(=O)NCCCO)ccc4n3Cc3ccc(C)cc3)n2)cc1,x,12,60,x,1%,
Cc1ccccc1NC(=O)C(=O)NCC1CCCN1S(=O)(=O)c1cccs1 (stereo unspecified),x,-0.3,-8,x,x,
COc1ccc(Cc2nnc(N/N=C(\C)c3ccccc3)[nH]c2=O)cc1OC,x,-1.8,-4,x,-5%,
CCOc1ccc(N2C(=O)CC(N)C2=O)cc1 (stereo unspecified),-23,11,x,-8,12%,
Cc1cc(C)cc(N(C(=O)c2ccccn2)C(C(=O)NC2CCCCC2)c2cccs2)c1 (stereo unspecified),-26,3.2,-2,-4,3%,
CCc1nnc(NC(=O)c2cc([N+](=O)[O-])ccc2N2CCOCC2)s1,x,0.5,0,x,x,

# New compounds follow
SMILES,YopH inh,RecA intein inh,Mtb betalactam,Arbovirus anti,Mtb H37Rv,others
CC1CC1C(=O)OCC(=O)Nc1ccccc1Oc1ccccc1 (stereo unspecified),x,-0.6,-5,13,7%,
COc1ccccc1C(=O)NC(=O)COC(=O)CN1C(=O)NC(C)(C)C1=O,x,2.4,-6,x,x,
C[C@@H]1NC(=O)[C@H](CC(N)=O)NC(=O)c2cc([N+](=O)[O-])cc(I)c2OCC[C@@H](C(=O)NC(CC(=O)O)C(N)=O)NC1=O (stereo partly specified),-15,x,-14,-1,-6%,
Cc1cc2[nH]c(=O)c(=O)[nH]c2cc1S(=O)(=O)NCc1ccc(Cl)cc1,x,1.9,u,x,x,
Cc1ccc(-c2cc(C(F)F)n3ncc(C(=O)N4CCCCC4c4cccnc4)c3n2)cc1 (stereo unspecified),x,-15,0,-8,13%,
Cc1ccc(N2NC(=O)/C(=C/c3ccc(-c4ccc(Cl)c(C(=O)O)c4)o3)C2=O)cc1,x,-0.6,77,-34,5%,
CC(C)(C)c1ccc(NC(=O)CSc2nnc(-c3n[nH]c4ccccc34)o2)cc1,-25,3.0,6,-44,6%,
CC(=O)NNC(=S)NC(=O)C(c1ccccc1)c1ccccc1,x,6.4,12,-28,3%,
CCN(CC(=O)N1CCN(C)CC1)S(=O)(=O)c1ccc(Cl)cc1,-32,-1.1,-2,0,-6%,
COC(=O)[C@@H](NC(=O)NC(C)CCc1ccccc1)C(C)C (stereo partly specified),-32,-0.3,-11,0,-2%,
CC(C)CNC(=S)N1CCN(c2nc3ccccc3s2)CC1,x,-3.1,-5,5,2%,
CCCN=C(N)/C(C(=O)OCC)=C(\O)c1ccc(OC)cc1,-19,4.1,-17,-9,0%,
COc1ccc2c(c1)NC(C)(C)C=C2C,x,1.5,3,8,5%,
N#CC1=C(N)Oc2c(O)cc3ccccc3c2C1c1ccsc1 (stereo unspecified),-16,6.0,77,-38,8%,
Cc1nc2ccc(NC(=O)c3ccco3)cc2nc1C,x,0.2,-3,-1,0%,
COc1cccc(C(=O)NC2CC3CCCC(C2)N3CC(=O)Nc2ccccc2)c1 (stereo unspecified),5,2.4,-3,23,-2%,
O=c1c2[nH]c3ccccc3c2ncn1CCN1CCOCC1,-4,x,u,6,-7%,
Cc1ccc(NC(=O)COc2ccc(C(=O)c3ccccc3)cc2)c(O)c1,x,-0.9,-14,x,x,
CCN(CC)S(=O)(=O)c1ccc(OC)c(NC(=S)Nc2cccc(C)c2)c1,-40,-0.4,-10,-2,6%,
COc1ccc(OC)c(NC(=O)CSc2nnc(CNC(=O)c3cccs3)o2)c1,x,-4.4,-3,x,x,
CCn1ccc(C(=O)Nc2ccccc2Cl)n1,x,1.0,2,-6,-8%,
c1ccc(NC(c2ccccc2)c2ccncc2)cc1 (stereo unspecified),x,0.5,4,x,x,
